# Compound activity: PubChem, Broad Institute
# DUX4 inh – DUX4-mediated transcription inhibition; 293T-iDUX4 ZSCAN4-Gaussia luciferase reporter, 24 h; hits give low values; 0.8% of 37,000 active; activity change, negative = inhibition, % (concentration not given with the values); AID 1224904;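 active = -10% or lower and over 25 points stronger than a control reporter; inconclusive = -10% or lower with a smaller gap; inactive = above -10%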;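 also: 0% = median of neutral control wells and -100% = median of positive control wells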
# DUX4 inh difference – recorded beside DUX4 inh, whose call it bears; Gaussia minus Italica difference, %; measured here: selective DUX4 reporter inhibition;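 worked out from the two reporters; negative = selective loss of the DUX4 reporter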
# DUX4 inh control – further read-out of DUX4 inh, marked with its call; activity change, negative = inhibition, %; measured here: Italica tet-on control reporter;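 0 = neutral control and -100 = positive control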
# An asterisk follows results filed as active; ? = inconclusive; nt = not tested or not shown; & = joins results of further samples. Some of the compounds tested; rates above refer to the full screens.
(1) O=C(Nc1cccc(Cl)c1)N1C[C@H]2[C@@H](c3ccccc31)[C@H](CO)N2C(=O)c1ccncc1
(2) C[C@H](NC(=O)C[C@@H]1C=C[C@@H](NS(=O)(=O)c2cccc(F)c2)[C@@H](CO)O1)c1ccccc1
(3) Cc1ccc(S(=O)(=O)N[C@@H]2C=C[C@H](CC(=O)NCCCN(C)C)O[C@H]2CO)cc1
(4) CCS(=O)(=O)Nc1ccc2c(c1)C(=O)N(C)[C@@H]1CC[C@H](CC(=O)NCc3ccc(OC)cc3)O[C@H]1CO2
(5) O=C(C[C@@H]1C=C[C@@H](NC(=O)c2ccc3c(c2)OCO3)[C@@H](CO)O1)NCc1ccc(F)cc1
(6) C[C@@H]1CN([C@@H](C)CO)C(=O)CCCn2nncc2CO[C@@H]1CN(C)C(=O)NC1CCCC1

assay / entry	1	2	3	4	5	6
DUX4 inh	-6	0	2	-2	7	2
DUX4 inh difference	-3	0	-4	-4	4	2
DUX4 inh control	-2.5	-0.3	5.4	2.0	2.9	0.0

(7) COc1ccc(CN2C[C@H](O)COC[C@H]3O[C@H](CC(=O)NCCN4CCCC4)CC[C@@H]32)cc1
(8) O=C(Nc1ccccc1F)N1C[C@H]2[C@@H](c3ccccc31)[C@H](CO)N2C(=O)c1ccc(F)cc1
(9) COCC(=O)N1C[C@@H]2[C@H](c3ccccc31)[C@H](CO)N2Cc1ccccc1F
(10) C[C@H]1CN([C@@H](C)CO)C(=O)CCCn2nncc2CO[C@@H]1CN(C)C(=O)Nc1ccnc(N2CCOCC2)c1
(11) C[C@H](CO)N1C[C@H](C)[C@@H](CN(C)Cc2ccc(C(=O)Nc3ccccc3N)cc2)OCCCC[C@H](C)Oc2ccc(N(C)C)cc2C1=O
(12) CC(C)NC(=O)N1C[C@H]2[C@@H](c3ccccc31)[C@H](CO)N2C(=O)Nc1cccc(F)c1

assay / entry	7	8	9	10	11	12
DUX4 inh	4	1	-1	5	0	-2
DUX4 inh difference	6	9	1	2	-1	-3
DUX4 inh control	-1.5	-8.0	-2.1	2.5	0.4	1.0

# A second format for part of the listing above:
no.	SMILES	DUX4 inh	DUX4 inh difference	DUX4 inh control
7	COc1ccc(CN2C[C@H](O)COC[C@H]3O[C@H](CC(=O)NCCN4CCCC4)CC[C@@H]32)cc1	4	6	-1.5
8	O=C(Nc1ccccc1F)N1C[C@H]2[C@@H](c3ccccc31)[C@H](CO)N2C(=O)c1ccc(F)cc1	1	9	-8.0
9	COCC(=O)N1C[C@@H]2[C@H](c3ccccc31)[C@H](CO)N2Cc1ccccc1F	-1	1	-2.1
10	C[C@H]1CN([C@@H](C)CO)C(=O)CCCn2nncc2CO[C@@H]1CN(C)C(=O)Nc1ccnc(N2CCOCC2)c1	5	2	2.5

# Next part.
(13) O=C(Nc1cc(F)ccc1F)N[C@H]1CC[C@H](CCn2cc(C3CCCCC3)nn2)O[C@@H]1CO
(14) COCC(=O)N1[C@@H](CO)[C@@H](c2ccc(-c3cccc(F)c3)cc2)C12CN(C(=O)C1CC1)C2
(15) CC(C)NC(=O)N[C@@H]1CC[C@H](CCNS(=O)(=O)Cc2ccccc2)O[C@@H]1CO
(16) CO[C@@H](CN(C)S(=O)(=O)c1cn(C)cn1)[C@@H](C)CN(C(=O)Nc1ccc(F)cc1)[C@H](C)CO
(17) O=C(c1ccccc1)N1C[C@H]2[C@@H](c3ccccc31)[C@H](CO)N2S(=O)(=O)c1ccccc1
(18) CCNC(=O)C[C@@H]1CC[C@@H]2[C@H](COC[C@@H](O)CN2C(=O)Nc2ccc(Cl)c(Cl)c2)O1

assay / entry	13	14	15	16	17	18
DUX4 inh	-7	9	-2	3	0	4
DUX4 inh difference	4	6	-7	0	0	5
DUX4 inh control	-11	3.7	5.7	3.5	0.3	-1.4

(19) O=C(C[C@@H]1C[C@@H]2c3cc(NC(=O)C4CCC4)ccc3O[C@@H]2[C@H](CO)O1)NCc1ccccn1
(20) CO[C@H]1CN(C)C(=O)c2ccc(NC(=O)C3CCCC3)cc2OC[C@@H](C)N(CCC(F)(F)F)C[C@@H]1C
(21) CCC(=O)Nc1ccc2c(c1)OC[C@H](C)N(Cc1ccccc1)C[C@H](C)[C@@H](OC)CN(C)C2=O
(22) CCCNC(=O)N1CC2(C1)CN(C(=O)c1ccccc1)[C@H](CO)c1[nH]c3cc(OC)ccc3c12
(23) CCC(=O)Nc1ccc2c(c1)C(=O)N(C)C[C@H](OC)[C@H](C)CN(CC1CCOCC1)[C@H](C)CO2
(24) C[C@H](NC(=O)C[C@H]1C=C[C@@H](NS(=O)(=O)c2cccc(F)c2)[C@@H](CO)O1)c1ccccc1

assay / entry	19	20	21	22	23	24
DUX4 inh	1	-4	1	7	2	-3
DUX4 inh difference	-9	-9	-7	-12	7	-4
DUX4 inh control	9.8	5.1	7.6	19	-4.9	1.5

(25) CCCNC(=O)N1CC2(C1)CN(S(C)(=O)=O)[C@H](CO)c1c2c2ccc(OC)cc2n1C
(26) C[C@@H]1CN([C@@H](C)CO)C(=O)c2c(c3ccccc3n2C)-c2ccccc2CO[C@H]1CN(C)Cc1cccc(F)c1
(27) CC(C)NC(=O)N1C[C@H]2[C@@H](c3ccccc31)[C@H](CO)N2C(=O)c1ccccc1
(28) C[C@@H]1CN([C@H](C)CO)C(=O)c2cccc(NC(=O)C3CCOCC3)c2O[C@@H]1CN(C)S(=O)(=O)c1cn(C)cn1
(29) O=C(C[C@@H]1C=C[C@@H](NC(=O)c2ccncc2)[C@@H](CO)O1)NCC1CC1
(30) Cc1ccccc1S(=O)(=O)N1CC(=O)N2[C@H](CO)[C@H](c3ccc(C#CCC(C)C)cc3)[C@H]2C1

assay / entry	25	26	27	28	29	30
DUX4 inh	15	?	2	4	2	-10
DUX4 inh difference	0	nt	3	2	-2	-1
DUX4 inh control	16	nt	-0.6	1.8	3.6	-9.1

(31) CO[C@H]1CN(C)C(=O)c2ccc(NC(=O)C3CCC3)cc2OC[C@H](C)N(Cc2ccccn2)C[C@H]1C
(32) CCCNC(=O)N1C[C@H](O)COC[C@@H]2O[C@@H](CC(=O)N3CCCCC3)CC[C@H]21
(33) COc1ccc2c3c([nH]c2c1)[C@@H](CO)N(C)CC31CCN(C(=O)c2cccnc2)CC1
(34) CCC(=O)N1CC2(C1)CN(C(=O)Nc1ccc(F)cc1)[C@H](CO)c1c2c2ccc(OC)cc2n1C
(35) N#C[C@H]1[C@H](c2ccccc2-c2ccc(F)cc2)[C@H](CO)N1C(=O)Cc1ccncc1
(36) CO[C@@H]1CC[C@@H]2CCN(C)C(=O)C[C@@H](c3ccccc3)CN(C)C(=O)c3cccc(C#N)c3OC[C@H]1O2

assay / entry	31	32	33	34	35	36
DUX4 inh	-5	8	11	5	-1	3
DUX4 inh difference	-5	4	-5	5	-2	-2
DUX4 inh control	0.1	3.8	16	0.0	1.4	4.4

# One compound at a time, from the list above. Values in the order: DUX4 inh, DUX4 inh difference, DUX4 inh control
# Listed for CO[C@H]1CN(C)C(=O)c2ccc(NC(=O)C3CCC3)cc2OC[C@H](C)N(Cc2ccccn2)C[C@H]1C : -5, -5, 0.1
# Listed for CO[C@@H]1CC[C@@H]2CCN(C)C(=O)C[C@@H](c3ccccc3)CN(C)C(=O)c3cccc(C#N)c3OC[C@H]1O2 : 3, -2, 4.4
# Listed for CCC(=O)N1CC2(C1)CN(C(=O)Nc1ccc(F)cc1)[C@H](CO)c1c2c2ccc(OC)cc2n1C : 5, 5, 0.0
# Listed for N#C[C@H]1[C@H](c2ccccc2-c2ccc(F)cc2)[C@H](CO)N1C(=O)Cc1ccncc1 : -1, -2, 1.4

# Carrying on:
(37) CO[C@H]1CN(C)C(=O)c2cc(NC(C)=O)ccc2OC[C@H](C)N(C(=O)C2CC2)C[C@@H]1C
(38) C[C@@H](NC(=O)C[C@H]1C[C@H]2c3cc(NC(=O)C4CCOCC4)ccc3O[C@H]2[C@@H](CO)O1)c1ccccc1
(39) COc1ccc(NC(=O)Nc2ccc3c(c2)[C@H]2C[C@H](CC(=O)NCc4ccncc4)O[C@H](CO)[C@H]2O3)cc1
(40) C[C@@H]1CN([C@@H](C)CO)C(=O)c2ccccc2-c2ccccc2CO[C@@H]1CN(C)C(=O)Nc1cccc(F)c1
(41) O=C(C[C@@H]1CC[C@@H]2[C@H](COC[C@@H](O)CN2C(=O)Nc2ccc(Cl)c(Cl)c2)O1)NCc1ccccc1
(42) COc1cccc(S(=O)(=O)N2C[C@@H](O)COC[C@H]3O[C@H](CC(=O)Nc4ccccc4)CC[C@@H]32)c1

assay / entry	37	38	39	40	41	42
DUX4 inh	12	3	-4	-1	?	-6
DUX4 inh difference	10	0	-5	0	nt	-6
DUX4 inh control	1.6	2.7	0.7	-0.6	nt	-0.2

(43) CCCC(=O)Nc1ccc2c(c1)C(=O)N(C)C[C@H](OC)[C@H](C)CN(C(=O)C1CCCC1)[C@@H](C)CO2
(44) C[C@H](CO)N1C[C@H](C)[C@@H](CN(C)S(=O)(=O)c2ccc(Cl)cc2)OCc2ccccc2-c2ccccc2C1=O
(45) CCCC#Cc1ccc2c(c1)[C@@H]1[C@@H](CCN1S(=O)(=O)c1ccccc1F)[C@@H](CO)N2
(46) CN1C(=O)c2cc(NS(=O)(=O)c3cccc(F)c3)ccc2OC[C@H]2O[C@H](CC(=O)NCCN3CCCCC3)CC[C@@H]21
(47) CCC(=O)N(CC)C[C@H]1[C@H](c2ccc(-c3cccnc3)cc2)[C@@H](CO)N1C(C)=O
(48) COc1cccc(NC(=O)N[C@@H]2CC[C@@H](CC(=O)N3CCN(C)CC3)O[C@H]2CO)c1

assay / entry	43	44	45	46	47	48
DUX4 inh	-1	1	15	4	-2	0
DUX4 inh difference	-5	-2	6	2	-5	-2
DUX4 inh control	4.1	2.9	8.5	2.1	2.8	1.7

(49) O=C(c1ccccc1)N1C[C@@H]2[C@H](c3ccccc31)[C@@H](CO)N2C(=O)Nc1ccccc1Cl
(50) COCC#Cc1ccc2c(c1)O[C@@H](CN(C)Cc1ccccc1F)[C@H](C)CN([C@@H](C)CO)S2(=O)=O
(51) COc1ccccc1C#Cc1ccc([C@H]2[C@H](CO)N3CCCCN(CCC(F)(F)F)C[C@@H]23)cc1
(52) COCCNC(=O)C[C@H]1C[C@H]2c3cc(NC(=O)CN(C)C)ccc3O[C@H]2[C@H](CO)O1
(53) O=C(C[C@@H]1CC[C@H]2[C@@H](COC[C@H](O)CN2C(=O)c2ccncc2)O1)NCc1cccc(F)c1
(54) C[C@@H]1CN([C@@H](C)CO)C(=O)c2ccccc2-c2ccccc2CO[C@@H]1CN(C)C(=O)c1ccncc1

assay / entry	49	50	51	52	53	54
DUX4 inh	0	-3	-61*	1	7	7
DUX4 inh difference	-2	2	-25*	3	2	0
DUX4 inh control	1.9	-5.0	-35*	-2.2	5.0	6.7

(55) COc1ccc(NC(=O)N[C@@H]2CC[C@H](CCNC(=O)c3ccccc3F)O[C@@H]2CO)cc1
(56) COc1ccc(S(=O)(=O)N(C)C[C@@H]2Oc3ccc(NC(=O)CCCCCC(=O)Nc4ccccc4N)cc3C(=O)N([C@@H](C)CO)C[C@H]2C)cc1
(57) CO[C@H]1CC[C@H]2CCOc3ccc(C#N)cc3C(=O)N(C)C[C@H](c3ccccc3)CC(=O)N(C)C[C@@H]1O2
(58) CO[C@H]1CN(C)C(=O)c2ccc(NC(=O)C3CCOCC3)cc2OC[C@@H](C)N(Cc2cccnc2)C[C@H]1C
(59) COc1ccc2c3c(n(C)c2c1)[C@H](CO)NCC31CN(C(=O)c2ccccc2)C1
(60) CN1[C@@H]2c3ccc(-c4ccc(F)cc4)c(=O)n3C[C@@H]2[C@@H](CO)[C@@H]1C(=O)NCCN1CCCCC1
(61) C(=C\c1ccc(C2[C@H]3CNC[C@@H]2N3Cc2nccs2)cc1)/c1ccccc1 (stereo partly specified)
(62) COc1ccccc1NC(=O)N1C[C@H](O)COC[C@H]2O[C@H](CC(=O)N3CCC(Cc4ccccc4)CC3)CC[C@@H]21

assay / entry	55	56	57	58	59	60	61	62
DUX4 inh	3	2	-1	8	?	-4	1&10	2
DUX4 inh difference	5	2	-5	5	nt	-3	-3&7	-4
DUX4 inh control	-1.5	-0.1	4.1	3.0	nt	-0.9	4.6&3.6	6.1

# Entries listed so far that contain an NH in an aromatic ring:
(22) CCCNC(=O)N1CC2(C1)CN(C(=O)c1ccccc1)[C@H](CO)c1[nH]c3cc(OC)ccc3c12
(33) COc1ccc2c3c([nH]c2c1)[C@@H](CO)N(C)CC31CCN(C(=O)c2cccnc2)CC1

assay / entry	22	33
DUX4 inh	7	11
DUX4 inh difference	-12	-5
DUX4 inh control	19	16
